HIV TAR-Tat: HIV-1 TAR-Tat binding disruption; HIV-1 TAR RNA, Tat peptide displacement FRET; active compounds read high; z-score (test concentration not listed); 100,000 tested, 0.6% active; AID 1259389;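 also: score is relative to mean and SD of negative controls; some compounds called inactive have numbers as strong as hits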
CDC25B CDK2 inh: human CDC25B-CDK2/CyclinA binding inhibition | 94,000 tested, 0.72% active | AID 1259370 | HTRF CDC25B-CDK2/CyclinA binding, anti-His/anti-Flag; active compounds read high | P30305+P24941 | z-score (test concentration not listed);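 also: score is relative to mean and SD of negative controls; strong numbers were not always called active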
Numbers without * were called inactive; . = no result given.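 The calls were made as follows: active = z-score from 3 up in half or more of its runs; inactive = the rest.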 No enrichment for hits (roughly 0.97% active in at least one column).

SMILES	HIV TAR-Tat	CDC25B CDK2 inh
CN(C)S(=O)(=O)c1ccc2c(c1)N(CC(=O)N1CCN(c3ccccc3)CC1)CCS2	1.3	.
CC(C)c1nnc(NC(=O)c2cc(=O)c3ccccc3o2)s1	0.25	-1.1
COc1cc2[nH]c(=O)n(CCCC(=O)NCc3ccco3)c(=O)c2cc1OC	0.72	-1
Cc1ccc(N2C(=O)C3C(C2=O)C2(C)c4ccccc4C3(C)c3ccccc32)cc1C (stereo not drawn)	.	-1.8
O=C(Cn1ncn2cccc2c1=O)NCc1cccs1	0.89	-1.9
CCc1nnc(NC(=O)c2csnn2)s1	-0.58	2.7
CCOC(=O)N1CCN(S(=O)(=O)N2CCCC(C(=O)NCc3ccco3)C2)CC1 (stereo not drawn)	1.6	.
C#CCN1C(=O)C(O)(CC(=O)c2ccc(-n3cccc3)cc2)c2cc(Br)ccc21 (stereo not drawn)	1.8	3.3
COC(=O)c1ccc(-c2ccco2)n1CC(=O)NCCN1CCN(C)CC1	-2.4	.
O=C(Nc1ccccc1Cl)c1noc2c1CCc1sccc1-2	0.06	.
CCSCCOC(=O)C1=C(C)NC2=C(C(=O)CC(c3ccccc3)C2)C1c1ccc(N(C)C)cc1 (stereo not drawn)	0.05	0.03
Cc1ccc(C2CC(c3ccc(Br)cc3)=NN2C(=O)CCC(=O)O)cc1 (stereo not drawn)	.	2.3
Cc1nc2cc(CO)ccc2n1-c1ccccc1	0.75	-1.2
O=C(COCc1cc(-c2ccc3c(c2)OCO3)on1)Nc1ccccn1	0.88	.
CCCc1c(O)nc(SCCC(=O)O)[nH]c1=O	1.5	0.61
CCOC(=O)c1cc(CNC(=O)c2c(C)oc3c2CCCC3)c(C)o1	.	-1.5
C=CCSc1nc(N)c(C(=O)Nc2ccccc2)cc1C(N)=O	0.41	0.09
CCc1nnc(NC(=O)c2cc(=O)c3cc(C)cc(C)c3o2)s1	1.3	-1
COc1ccc(CCNC(=O)OC(C)(C)C(C)=O)cc1OC	.	-0.35
CN(C)S(=O)(=O)c1ccc2c(c1)N(CC(=O)N1CCC(C(N)=O)CC1)CCS2	0.51	.
COc1ccc(C2=NS(=O)(=O)c3cc(S(=O)(=O)N4CCCCC4)ccc3N2)cc1	0.37	.
O=C(NCc1cccn1Cc1cccc(F)c1)Nc1ccc(Br)cc1F	-0.47	.
CCCOC(=O)c1ccc(CSc2nc(-c3ccccc3)c(C#N)c(=O)[nH]2)cc1	-0.22	1.7
Cc1ncc(-c2ccc(S(=O)(=O)Nc3cc(Cl)ccc3C)cc2)o1	0.36	.
Cc1sc2nc3n(sc4nc5sc(C)c(C)c5c(=O)n43)c(=O)c2c1C	.	0.59
Cn1c(=O)c2c(N3CCOCC3)cc(=O)n(C)c2n(C)c1=O	.	-0.83
COC(=O)c1ccc(C2C(Oc3ccccc3)C(=O)N2CCc2ccc(F)cc2)cc1 (stereo not drawn)	1.5	1.3
CC(=O)N1c2nc(-c3ccc(C)cc3)nn2C2(CCCCC2)[C@@H]2CCCC[C@@H]21	1.4	0.36
COc1ccc(Nc2ccc3nnnn3n2)cc1	-1.5	-1.1
Cc1ccc(Nc2nc(NCc3ccccc3)nc3c2cnn3C)cc1C	1.2	.

15 entries from above in another layout:
smiles | HIV TAR-Tat | CDC25B CDK2 inh
Cc1nc2cc(CO)ccc2n1-c1ccccc1 | 0.75 | -1.2
O=C(COCc1cc(-c2ccc3c(c2)OCO3)on1)Nc1ccccn1 | 0.88 | .
CCCc1c(O)nc(SCCC(=O)O)[nH]c1=O | 1.5 | 0.61
CCOC(=O)c1cc(CNC(=O)c2c(C)oc3c2CCCC3)c(C)o1 | . | -1.5
C=CCSc1nc(N)c(C(=O)Nc2ccccc2)cc1C(N)=O | 0.41 | 0.09
CCc1nnc(NC(=O)c2cc(=O)c3cc(C)cc(C)c3o2)s1 | 1.3 | -1
COc1ccc(CCNC(=O)OC(C)(C)C(C)=O)cc1OC | . | -0.35
CN(C)S(=O)(=O)c1ccc2c(c1)N(CC(=O)N1CCC(C(N)=O)CC1)CCS2 | 0.51 | .
COc1ccc(C2=NS(=O)(=O)c3cc(S(=O)(=O)N4CCCCC4)ccc3N2)cc1 | 0.37 | .
O=C(NCc1cccn1Cc1cccc(F)c1)Nc1ccc(Br)cc1F | -0.47 | .
CCCOC(=O)c1ccc(CSc2nc(-c3ccccc3)c(C#N)c(=O)[nH]2)cc1 | -0.22 | 1.7
Cc1ncc(-c2ccc(S(=O)(=O)Nc3cc(Cl)ccc3C)cc2)o1 | 0.36 | .
Cc1sc2nc3n(sc4nc5sc(C)c(C)c5c(=O)n43)c(=O)c2c1C | . | 0.59
Cn1c(=O)c2c(N3CCOCC3)cc(=O)n(C)c2n(C)c1=O | . | -0.83
COC(=O)c1ccc(C2C(Oc3ccccc3)C(=O)N2CCc2ccc(F)cc2)cc1 (stereo not drawn) | 1.5 | 1.3

Continued:
SMILES	HIV TAR-Tat	CDC25B CDK2 inh
Fc1ccc2ncc3c(-c4ccccc4)n[nH]c3c2c1	0.92	.
Cn1nc(C(=O)Nc2ccc(F)c(Cl)c2)c2c1-c1ccccc1S(=O)(=O)C2	0.93	-0.59
CC(=O)N1c2nc(-c3ccco3)nn2C2(CCCCC2)[C@@H]2CCCC[C@@H]21	1.4	-0.88
COc1ccc(OC)c(-n2nnc(S(=O)(=O)c3ccc(C)cc3)c2C)c1	1.4	1.1
C=CCc1nc(C)c(CC(=C)C)c(=O)[nH]1	0.72	-0.44
Cc1ccc(-c2nc3c(c(=O)[nH]2)Cc2cccc(C)c2O3)cc1	-1.2	-0.61
Cc1cc(N2CCOCC2)n2nc(C(F)(F)F)c(-c3ccccc3Cl)c2n1	0.91	-1.1
CCOCCCNC(=O)CCCn1nc(C)n2c(cc3sccc32)c1=O	0.01	-0.26
Cc1ccc(C)c(NC(=O)N2CCn3c(C)ccc3C2C(C)C)c1 (stereo not drawn)	1.2	.
CNCCC(Oc1ccc(C(F)(F)F)cc1)c1ccccc1 (stereo not drawn)	0.47	-1.9
Cc1cc(Cl)ccc1NS(=O)(=O)C1CCS(=O)(=O)C1 (stereo not drawn)	2.5	-1.8
COc1ccccc1C(Nc1cc(C)ccn1)c1ccc2cccnc2c1O (stereo not drawn)	.	1.2
O=C(Nc1ccc(F)cc1)N1CCCCCCC1	.	-1.3
COc1cccc(C2=NN(S(C)(=O)=O)C(c3cn(-c4ccccc4)nc3-c3cccs3)C2)c1 (stereo not drawn)	-0.56	-5.5
C=CCNC(=O)C1CC(c2ccc(OC)c(OC)c2)=NO1 (stereo not drawn)	2.3	-1.1
O=C(O)/C(=N/Nc1ccccc1O)c1ccccc1	.	-4.7
COc1ccc(CCN[C@H]2CS(=O)(=O)C[C@@H]2S(=O)(=O)c2ccccc2)cc1OC	-0.09	-1.5
O=C(NC1=NCCS1)c1ccc2snnc2c1	.	-2
CCCOc1ccc(CC2C(=O)Nc3ccc(Br)cc32)cc1 (stereo not drawn)	-0.2	-1.4
CSc1ccc(NC(=O)N2CCC(n3c(=O)[nH]c4ccccc43)CC2)cc1	0.88	-3.2
O=C(Cn1cc(S(=O)(=O)c2ccc(F)cc2)c(=O)c2cc(F)ccc21)Nc1ccccc1	.	0.53
CCOCCc1nn2c(=O)cc(COC(=O)COc3ccccc3C)nc2s1	-0.66	.
O=C(Cn1nc2c3scc(-c4ccc(F)cc4)c3ncn2c1=O)NCCc1ccc(Cl)cc1	0.66	.
CC(C)Sc1nn(C)c2nc3c(c(=O)n12)C(C)(C)Cc1ccccc1-3	-0.17	-2.3
CC(NC(=O)CSc1nnc(SCC(=O)NC(C)c2ccccc2)s1)c1ccccc1 (stereo not drawn)	.	-3.7
Cc1nnc(N2C(=O)C(=O)/C(=C(/O)c3ccc(F)cc3)C2c2ccc(Br)cc2)s1 (stereo not drawn)	.	-4.3
Cc1cc(S(=O)(=O)NCCNc2nccc(C(F)(F)F)n2)c(C)cc1Cl	.	-0.81
Cc1ccc(-c2c(N3CCCc4ccccc43)c(=O)c2=O)cc1C	3	.
O=C(c1nc2n(n1)C1(CCCCC1)[C@@H]1CCCC[C@@H]1N2C(=O)C1CCCCC1)N1CCOCC1	1.8	-0.54
CC1=C(C(=O)NCCN(CC(C)C)CC(C)C)C2(CCCCC2)OC1=O	0.42	-1.6
O=C(CCc1nnc2ccc(N3CCCCC3)nn12)NCCc1c[nH]c2ccccc12	0.42	.
Cn1c(NCCO)nc2c1c(=O)n(Cc1ccc(F)cc1)c(=O)n2C	-0.33	0.29
Cc1ccc(C)n1-c1nnc(N2CCC(C(=O)NCCc3cccs3)CC2)s1	-0.18	-0.28
Cc1nn(-c2ccc(F)cc2)c2c1c(=O)c(C(=O)O)cn2C	0.46	1.3
CN(C(=O)c1nn(C)c2c1CSc1ccccc1-2)c1ccc(Br)cc1	0.78	-0.66
Cc1ccnc(NS(=O)(=O)c2cc(-c3onc(C)c3C)ccc2C)c1	1.6	.
COc1ccc(-c2nnc3c4cc5c(cc4n(Cc4ccccc4)cc2-3)OCCO5)cc1	-0.71	-0.78
COc1ccc(-c2ccnc3c(-c4ccc(F)cc4)c(C)nn23)cc1OC	0.03	-1.7
COC(=O)c1ccc(CSc2ccccc2N)o1	.	-2.3
Cn1c(=O)[nH]c2cc(-c3noc(CNC(=O)c4ccccc4)n3)ccc21	1.2	.
COc1ccc(-c2cn3cccnc3n2)cc1NC(=O)c1ccc(Br)o1	.	-0.51
CCn1c(N)c(C(=O)NCC2CCCO2)sc1=S (stereo not drawn)	1.3	-1.6
COCCOC(=O)C1=C(C)NC2=C(C(=O)CC(c3ccc(Cl)cc3)C2)C1c1ccc(C)cc1 (stereo not drawn)	0.54	-2
COc1cc(OC)cc(-c2noc(C3CCCN(S(=O)(=O)c4ccc(C(C)C)cc4)C3)n2)c1 (stereo not drawn)	2.1	.
Cn1c(Cn2c(=O)sc3ccccc32)nnc1SCC(=O)N1CCCC1	.	-1.2
COc1cc(NC2c3ncccc3C(=O)N2c2cccc(OC)c2)cc(OC)c1 (stereo not drawn)	-0.63	.
COc1ccc(CNc2nc(-c3ccc(OC)cc3)nc3ccccc23)cc1	0.01	.
CN(Cc1ccccc1)c1ncnc2onc(-c3ccc(F)cc3)c12	-0.24	.
Cc1ccccc1-c1nnc(CS(=O)(=O)c2ccccc2)o1	1.6	0.51
Cc1ccc2nc(NC(=O)C(Cc3c[nH]c4ccccc34)NC(=O)OCc3ccccc3)sc2c1 (stereo not drawn)	.	-1.2

A run of entries of the results above:
SMILES	HIV TAR-Tat	CDC25B CDK2 inh
Cc1ccccc1-c1nnc(CS(=O)(=O)c2ccccc2)o1	1.6	0.51
Cc1ccc2nc(NC(=O)C(Cc3c[nH]c4ccccc34)NC(=O)OCc3ccccc3)sc2c1 (stereo not drawn)	.	-1.2

More compounds:
SMILES	HIV TAR-Tat	CDC25B CDK2 inh
CCOc1ccc(-c2noc(CSc3nc4cc5c(cc4c(=O)n3C)OCO5)n2)cc1	2.4	.
Cc1cc(S(=O)(=O)/N=C(\N)c2ccc(C(N)=O)cc2)cc(C)c1F	.	-1.4
CCc1ccc(NS(=O)(=O)c2cc3[nH]c4c(c3cc2CC)C(=O)CCC4)cc1	1.2	.
Cc1ccsc1CCNC(=O)CCS(=O)(=O)c1ccc2c(c1)NC(=O)CS2	-12	.
COc1ccc(-c2nnc3c4ccccc4c(C)nn23)cc1S(=O)(=O)N1CCCC1	1.1	-0.91
CCCCN(C)C(=O)c1cc2c(s1)-c1ccccc1S(=O)(=O)C2	0.12	-0.89
O=C(O)CCCc1nc2cccnc2n1C1CCCCC1	0.93	.
COc1ccccc1OCCSc1nnc(-c2ccc(C)cc2)o1	0.71	-0.85
CC1CCN(C2CCN(Cc3ccc4c(c3)OCO4)CC2)CC1	.	-0.89
CCCc1nn2c(=O)cc(COC(=O)c3ccccc3)nc2s1	-1.4	.
N/C(=N\OC(=O)c1ccc(OCC(F)(F)F)nc1)c1cccc(Cl)c1	.	-1.1
c1ccc(-c2cc(Sc3nnc(-c4ccncc4)o3)n3ncnc3n2)cc1	.	-1.9
Cn1c2ccccc2c2cnn(CC(=O)NCCCN3CCC(N4CCCCC4)CC3)c(=O)c21	0.27	-1.2
c1ccc(-n2cnc3cc(NCc4ccccn4)ccc32)cc1	-2.2	3.1
COc1ccc(Nc2nc(N)nc(CN3CCN(c4ccccc4)CC3)n2)cc1	.	0.73
CCCNC(=O)C1=Cc2cc(Br)ccc2OC=C1	1.2	0.77
Cc1ccc2c(c1)NC(SCC(=O)N1CCCC(C)C1)=NS2(=O)=O (stereo not drawn)	0.69	.
Cc1oc(-c2cccs2)nc1Cn1c(=O)cc(C)c2c(C)nn(-c3cccc(F)c3)c21	-0.63	.
CCc1cc2c(cc3c(=O)n(CC(=O)N4CCc5ccccc5C4)nc(CC)n32)s1	-0.71	-2.1
CCOC(=O)NC(Nc1cccc(C(C)=O)c1)(C(F)(F)F)C(F)(F)F	.	-0.11
Cc1cc(C)c(CSc2nnc(C)n3c2cc2occc23)c(C)c1	-0.45	.
COC(=O)c1cc(S(=O)(=O)Nc2cc(C)cc(C)c2)cn1C	0.77	-0.47
CC(=O)Nc1nc(C)cc(-n2nc(-c3ccc(Br)cc3)cc2C(F)(F)F)n1	0.81	.
CC12CN3CC(C)(CN(C1)C3c1cc(Br)ccc1O)C2 (stereo not drawn)	1.1	-0.35
COc1ccccc1N=C(NC#N)SC	.	-0.93
Fc1ccc(-c2noc3ncnc(Nc4ccc5c(c4)OCO5)c23)cc1	-0.37	.
CCC1CN(C(=O)Nc2ccc(F)cc2F)c2ccccc2O1 (stereo not drawn)	1.6	.
CC(C)OCCCNC(=O)C1=Cc2cc(Br)ccc2OC1	1.1	.
COC(=O)c1sc2cccc(F)c2c1S(=O)(=O)Nc1ccc(N(C)C)cc1	-0.47	.
Cc1cc(N2CCCCC2)nc(N2CCN(C(=O)Nc3ccc(F)cc3)CC2)n1	1.8	.
COc1ccc(OC)c(CN2CCc3nc(Nc4ccc(OC)cc4OC)ncc3C2)c1	0.11	.
Cn1c(=O)c2c(nc(SCC(=O)NC3CCCCC3)n2C)n(C)c1=O	-1.1	-1.5
COc1ccccc1NS(=O)(=O)c1ccc(-c2cc(C(F)(F)F)on2)s1	1.7	.
Cc1cc(C(C)(C)CC(C)(C)C)ccc1OCCOCC[N+](C)(C)Cc1ccccc1	0.16	.

Assay outcomes: PubChem BioAssay, Center for Chemical Genomics, University of Michigan
